# Screening data as filed in PubChem.
# TRPV1 PAM: enhances activation of the human vanilloid receptor TRPV1 | actives 0.02% (n = 320,000) | TRPV1-expressing cells, Fluo-8 calcium influx, capsaicin EC20 potentiation; host cell line not named in the record; control for the full effect not named in the record | Q8NER1 | potentiation, % at 8.33 µM; active means potentiation above 80%; inconclusive means 30% to 80%; inactive means below 30%; also: 0% is about no effect
# Target sequence (Q8NER1 whole entry, looked up): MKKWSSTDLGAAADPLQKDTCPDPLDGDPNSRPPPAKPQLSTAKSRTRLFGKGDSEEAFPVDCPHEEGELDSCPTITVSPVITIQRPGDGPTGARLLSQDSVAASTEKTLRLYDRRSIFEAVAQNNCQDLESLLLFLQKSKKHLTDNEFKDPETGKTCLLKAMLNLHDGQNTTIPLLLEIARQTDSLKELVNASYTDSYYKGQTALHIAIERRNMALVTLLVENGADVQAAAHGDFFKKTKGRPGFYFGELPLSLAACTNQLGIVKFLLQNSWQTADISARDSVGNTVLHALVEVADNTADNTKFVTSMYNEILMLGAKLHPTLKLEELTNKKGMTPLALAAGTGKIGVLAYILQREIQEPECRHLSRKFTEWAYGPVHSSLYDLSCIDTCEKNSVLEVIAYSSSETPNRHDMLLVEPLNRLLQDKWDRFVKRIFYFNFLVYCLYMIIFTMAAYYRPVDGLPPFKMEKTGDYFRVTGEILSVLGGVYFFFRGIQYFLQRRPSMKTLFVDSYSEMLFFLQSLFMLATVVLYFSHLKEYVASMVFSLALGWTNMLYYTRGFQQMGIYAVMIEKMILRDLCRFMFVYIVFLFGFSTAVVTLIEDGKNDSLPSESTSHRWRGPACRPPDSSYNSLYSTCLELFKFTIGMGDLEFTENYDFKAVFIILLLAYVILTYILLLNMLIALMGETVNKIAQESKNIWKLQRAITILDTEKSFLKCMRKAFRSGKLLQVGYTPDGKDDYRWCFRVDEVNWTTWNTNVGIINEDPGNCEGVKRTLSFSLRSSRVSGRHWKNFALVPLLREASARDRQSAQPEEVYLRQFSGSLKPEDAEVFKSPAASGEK
#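 TRPV1-expressing cells were cultured overnight at 35.5C and loaded with Fluo-8 calcium dye for 40 to 90 min at room temperature. After a 10 s baseline, compound was added and calcium influx was read kinetically for 3 min (ex 480/em 520 nm).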
# CtBP-E1A blk: CtBP/E1A binding inhibition; actives 0.49% (n = 340,000); activity change, % (concentration not given with the values); AlphaScreen GST-E1A/His-CtBP binding, 1536-well; stronger effect = lower value; control for the full effect not named in the record; AID 651724; in the data active means activity change below about -65%; inconclusive means about -30% to -65%; inactive means above about -30%; also: % is scaled to controls: 0 for no effect and ±100 for the full control effect
#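 AlphaScreen with 125 nM GST-E1A and 125 nM His-CtBP (5X stocks) in Tris pH 8.0, 300 mM NaCl, BSA, Tween 20, TCEP. Compounds preincubated 2 h at 37 deg C, then glutathione donor/nickel acceptor beads added for 1 h at 37 deg C in dark.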
# PINK1 expr mod: PINK1 expression modulation | PINK1 immunofluorescence, high-content cytometry, 24 h | Potency, µM (top dose mostly 76.6 µM), inactives show top-dose activation (PINK1 increase), most hits filed as activators | actives 0.2% (n = 410,000); active = well fitted activation curve with a large enough effect; inconclusive = small, poorly fitted or top-dose-only effect; inactive = flat fitted curve, though single readings scatter; cell line not stated here;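 also: potency is read from the fitted curve at half-maximal effect; % of control where 0% means no effect; nearly all actives have a fitted effect of over 65% in size; a mitochondrial uncoupler was the plate control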
#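 Compound titrations (5 concentrations, 24 h) on a stable cell line; DMSO and CCCP controls. Endpoint: fixed-cell PINK1 immunofluorescence with mitochondrial, cell and nuclear markers, scanned by microplate cytometer.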
# Sfp inh: inhibitors of Bacillus subtilis Sfp phosphopantetheinyl transferase; Q9F4F7; Biochemical Sfp PPTase activity, qHTS; Potency, µM, for inactives: max response, negative = inhibition, hits mostly inhibitors; actives 3.5% (n = 310,000); AID 1490; active = well fitted inhibition curve with a large enough effect; inconclusive = small, poorly fitted or top-dose-only effect, or another doubt; inactive = no such curve, though single readings can be large or run the other way;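 also: the enzyme is Sfp with the accession as filed and its product quenches rhodamine fluorescence; potency is read from the fitted curve at half-maximal effect; 0% = enzyme reaction without inhibitor and -100% = no enzyme wells; top concentration of the series not given in the record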
#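 Step 1, compound plus 15 nM Sfp-PPTase, 15 min, room temperature. Step 2, add rhodamine-CoA (5 uM) and BHQ-2-YbbR (12.5 uM). Step 3, read 525/598 nm fluorescence at 0 and 30 min.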
# Six1-Eya2 blk: blocks human Six1 binding to Eya2; AlphaScreen GST-Six1/His-Eya2 binding, biochemical; stronger effect = lower value; control for the full effect not named in the record; activity change, % (test concentration not listed); actives 0.56% (n = 360,000); AID 651725; in the data active = activity change below about -65%; inconclusive = about -30% to -65%; inactive = above about -30%; also: % is scaled to controls: 0 for no effect and ±100 for the full control effect; compound concentration not given in the record
#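 Six1/Eya2 binding was read as AlphaScreen signal after compounds were pinned into GST-Six1 plus His-tagged Eya2 (5X stock 250/500 nM) in pH 8.0 Tris/NaCl/TCEP buffer, beads added, then incubated 1 h, 37 C, dark.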
# D2 agonist: activates the human D2 dopamine receptor. P14416. DiscoveRx PathHunter D2 beta-arrestin, luminescence, 90 min; 100% = 57 uM dopamine signal. activation, % (concentration not given with the values). actives 0.084% (n = 360,000). AID 624465; in the data active = activation above about 40%; inconclusive = about 15% to 40%; inactive = below about 15%; also: compound concentration not given in the record; the text of the record calls up to 30% inactive
#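 Agonist mode: compounds alone added to overnight-plated D2 PathHunter cells for 90 min at 37 C, with 57 uM final dopamine (EC100) defining full response. Beta-arrestin recruitment detected by chemiluminescent reagent, read after 1 h at ambient temperature.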
# D2 PAM: potentiates the human D2 dopamine receptor allosterically; potentiation, % (concentration not given with the values); actives 0.23% (n = 360,000); DiscoveRx D2 beta-arrestin cells, luminescence, 90 min; 100% = 57 uM dopamine signal; P14416; active = potentiation of 50% or more; inconclusive = 30% to 50%; inactive = 30% or less;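 also: compound concentration not given in the record; tested on top of an EC20 dose of dopamine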
#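 D2 cells co-treated with compound plus 50 nM dopamine (EC20) for 90 min at 37 deg C to detect potentiation. Beta-arrestin recruitment was read as enzyme-fragment luminescence after 1 h at ambient temperature. Full response was set by 57 uM dopamine.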
# * = called active by the depositor; ? = inconclusive; · = no result given; & = joins results of further samples; [ ] = another dose, or the depositor's remark.
SMILES,TRPV1 PAM,CtBP-E1A blk,PINK1 expr mod,Sfp inh,Six1-Eya2 blk,D2 agonist,D2 PAM
COC(=O)C(C(C)=O)C1=C/C(=N\S(=O)(=O)c2ccc(C)cc2)c2ccccc2C1=O (stereo not given),22,-11,9.0%[38.3 µM],?,-12,8.3,50*
CCOC(=O)N1C(=O)C2(CCCCC2)N(c2ccccc2Cl)C1=S,1,0,5.1%,?,7,-2.8,-36
CCCCSc1nc2ccccc2[nH]1,-19,3,3.7%,13%,3,6.4,2
Cc1ccc(CNC(=O)C2CCN(S(=O)(=O)c3ccc(Br)s3)CC2)cc1,9,-6,6.4%,12%,4,0.9,-3
CCn1c(SCC(=O)NCc2ccco2)nnc1-c1c[nH]c2ccccc12,4,1,5.0%[38.3 µM],10%,0,-2.6,-12
COc1ccccc1CNC(=O)COC(=O)Cn1cnc2ccccc21,5,-7,1.9%,15%,4,-4.9,-1
COC(=O)c1ccccc1N=C(SC)N(C)C,-21,6,-0.4%,-17%,5,0.1,-14
COc1cc2c(cc1OC)-c1cc(Nc3cccc(F)c3)nc(=O)n1CC2,30,-10,3.2%,19%,-79*,-3.8,-1
Cc1ccsc1C1Nc2ccc3ncccc3c2C2=C1C(=O)CC(C)(C)C2 (stereo not given),-25,-8,0.6%[38.3 µM],9%,-13,0.0,-11
O=S(=O)(Nc1nc2ccccc2nc1N1CCc2ccccc2C1)c1ccc(Br)cc1,-4,-16,?,-15%,?,-1.2,-5
Cc1nn(-c2ccc(Cl)cc2)c2sc(C(=O)N3CCN(c4ccccn4)CC3)cc12,9,4,8.9%,-1%,12,1.0,-7
C[C@H]1CN([C@@H](C)CO)C(=O)c2cccc(NC(=O)C3CC3)c2O[C@H]1CN(C)CC1CCCCC1,·,7,-1.2%,·,1,0.2,2
COc1ccc(NC(=O)c2cc(C3CCCCN3C(=O)C3CCCCC3)on2)c(C)c1 (stereo not given),·,-23,0.0%,·,8,-2.9,-19
CC(=O)Nc1ccc(S(=O)(=O)N2CCC(N(C)CCC(C)C)CC2)cc1,-24,-5,-0.9%,11%,2,-2.4,-27
CC(=O)C1=C(c2ccccc2)NC(=O)NC1c1ccccc1OCC(=O)Nc1ccccc1 (stereo not given),11,0,6.1%,3%,0,1.1,-7
COC(=O)c1sccc1NC(=O)c1c(C)c(-c2cccc(Cl)c2)nc2ccccc12,1,0,5.4%,11%,6,-3.3,-6
O=C(/C=C\c1ccco1)c1ccc(NC(=O)c2ccco2)cc1,5,-25,-1.5%,10µM*,-7,4.0,7
O=c1cc(N2CCCCC2)c(-c2ccccc2)nn1Cc1ccc(Cl)cc1,-3,-3,11%,?,7,-3.1,5
CCOC(=O)C1CCN(C(=O)COc2ccc(S(=O)(=O)N3CCOCC3)cc2)CC1,13,2,0.5%,11%,6,-1.4,-5
CCOc1ccc2oc(=O)cc(CN3CCOCC3)c2c1,-9,-8,1.8%,-10%,-5,-3.5,-4
COc1ccc(-c2oc3ncn(Cc4ccco4)c(=N)c3c2-c2ccc(OC)cc2)cc1,16,-12,4.6%,40µM*,-22,-2.9,-22
CC(C)NC(=O)CCCn1c(=S)[nH]c2cc3c(cc2c1=O)OCO3,-5,5,-4.1%,-25%,-1,3.7,25
CCCCC(=O)c1ccc(O)cc1,7,5,·,14%,6,0.1,-5
CC(C)CNC(=O)C1(C)CCCN1C(=O)Cc1cccc2ccccc12 (stereo not given),·,1,1.8%,·,-3,-4.0,-8
CCCCCCCC(=O)NNC(=O)c1c(O)c2ccccc2n(CC)c1=O,12,0,?,19%,11,-0.5,1
COc1ccc(C(=O)Nc2ccc(N3CCC(C)CC3)cc2)cc1Br,-5,2,18%,13%,11,-0.2,-2
COc1ccc(CCN2CC(C(=O)OCC(=O)NC(C)c3cccc(Cl)c3)CC2=O)cc1OC (stereo not given),-3,1,1.0%,·,5,-1.9,1
CN(C)c1ccc(S(=O)(=O)NCC(=O)OCC(=O)c2ccc[nH]2)cc1[N+](=O)[O-],24,3,0.1%,·,-1,-4.3,0
CCn1ncc([N+](=O)[O-])c1C(=O)Nc1ccc(C(=O)N2CCCCC2)cc1,7,-4,1.3%,0%,-11,3.8,15
COc1ccccc1NC(=O)CCc1nnc2ccc(NCc3ccco3)nn12,0,-4,-0.8%,10%,-6,-0.1,-4
CN1C(=O)c2cccc3c(S(N)(=O)=O)ccc1c23,?,-2,1.0%,11%,-3,1.3,0
Cn1cc([N+](=O)[O-])c(C(=O)N/N=C\c2c[nH]c3ccccc23)n1,0,-5,-2.5%,12%,-4,-1.6,-9
COc1cnn(-c2ccccc2)c(=O)c1OC,-17,13,-0.3%,0%,-4,-2.0,-4
Cc1cc(S(=O)(=O)N2CCCOC2CNC(=O)C(=O)NCc2cccs2)ccc1F (stereo not given),-6,1,10%,11%,-5,-0.1,-14
Cc1nc(CS(=O)(=O)c2ccc(Cl)cc2)cc(Sc2ccccc2Cl)n1,-6,2,-1.5%,5%,-5,-1.6,18
COc1ccc(CN(C)CC(=O)NCC(=O)Nc2c(C)cccc2C)cc1,21,5,2.2%,·,2,-3.3,-19
CC(C)n1ncc2c(C(=O)Nc3cccc(S(=O)(=O)N(C)C)c3)cc(C3CC3)nc21,7,-10,-0.7%,·,3,3.0,-19
Fc1ccc(CO/N=C2\CCCc3nonc32)cc1,16,4,1.0%,11%,9,-2.7,-13
Cc1cc(C)n(-c2ccc(S(=O)(=O)N3CCCC3)cc2[N+](=O)[O-])n1,28,·,-0.3%,9%,-4,-2.5,-10
CCn1c(SCC(=O)N2CCN(S(=O)(=O)c3ccccc3)CC2)nnc1-c1cccs1,-10,3,-3.6%,15%,5,0.3,13
Cn1c(=O)cc(OCCCC(=O)NCc2ccc(F)cc2Cl)c2ccccc21,-3,3,10%,14%,0,-2.9,-2
O=C(Nc1ccccc1SCC1CSc2nc3ccccc3c(=O)n21)c1cccc(Cl)c1 (stereo not given),-2,-6,-0.4%,-4%,1,2.4,-18
NC/C(=N\O)c1ccc(Cl)cc1Cl,4,7,-0.8%[38.3 µM],-14%,3,-0.1,-12
CC(OC(=O)Cn1cnc2ccccc2c1=O)C(=O)N(C)c1ccccc1 (stereo not given),-27,4,0.7%,·,8,-1.2,15
O=C(OC1CCOC1=O)c1ccc(Cl)c(S(=O)(=O)N2CCCCC2)c1 (stereo not given),0,7,3.2%,23%,-2,-2.8,0
COc1ccc(OC)c(NC(=O)CC2SC(=N)N(c3ccccc3)C2=O)c1 (stereo not given),2,15,2.1%,-4%,5,-4.2,0
C=CCc1cccc(/C=N/NC(=O)CCCNc2ccc(C)cc2)c1O,-7,?,1.4%,22%,?,-4.4,-27
O=S(=O)(c1ccccc1F)N1CCN(Cc2cc3c(cc2O)OCO3)CC1,5,·,-1.8%,·,-15,-3.0,-2
O=C(NC(=S)N1CCCCC1CO)c1cccs1 (stereo not given),·,-9,-1.2%,·,13,-2.6,-20
COc1ccccc1NC(=O)CCc1c(C)[nH]c(=O)c(C#N)c1C,-14,-1,-1.0%,13%,-1,-2.7,-1
COc1ccc(NC(=O)[C@@H](NS(=O)(=O)c2cccc(Cl)c2)C(C)C)cc1S(=O)(=O)N1CCOCC1,·,-12,1.5%,·,-6,5.1,-4
CC(=O)c1cccc(N(C(=O)CNC(=O)c2ccco2)C(C(=O)NC2CCCC2)c2ccncc2)c1 (stereo not given),8,-9,3.7%,-6%,19,-6.6,-4
COc1c(O)c(=O)n2c3ccccc3c3ccnc1c32,6,-82*,0.9%,·,-77*,-1.1,-17
COCCn1c(Cc2ccccc2)nnc1SCc1ccc([N+](=O)[O-])cc1,0,11,-0.8%,7%,22,-3.8,-6
COc1ccc(-c2nnc(SCC(=O)Nc3ncc(C)s3)n2-c2ccccc2)cc1OC,20,-3,1.0%,-6%,-6,-2.0,-19
Fc1ccc(Oc2nc(-c3ccccc3)nnc2C(F)(F)F)cc1,20,0,-0.6%,16%,0,-3.3,-10
CN(Cc1cccc(Cl)c1Cl)C(=O)c1ccc(NC(=O)CC#N)cc1,12,-5,0.3%,16%,4,0.2,-3
CN(Cc1c(C(=O)N(C)Cc2ccccc2)nc2ccccn12)CC1Cc2ccccc2O1 (stereo not given),11,4,1.6%,-14%,0,7.7,-8
CCn1c(=O)cc(OCC(=O)NCc2cccnc2)c2ccccc21,-4,7,3.5%,-4%,-2,-3.1,-10
COc1cccc(-n2c(C)nc3c(cnn3-c3ccc(C)cc3)c2=O)c1,-12,-4,-0.9%,10%,-1,1.9,-6
# (list continues)
SMILES,TRPV1 PAM,CtBP-E1A blk,PINK1 expr mod,Sfp inh,Six1-Eya2 blk,D2 agonist,D2 PAM
C1=Cc2ccccc2Nc2ccccc21,-3,·,0.8%,8%,-20,-0.1,-6
CCOc1ccc(S(=O)(=O)NCCC(=O)N2CCN(c3ccc(OC)cc3)CC2)cc1,0,-21,-0.6%,10%,-15,-3.5,-4
O=c1c2c(-c3ccccc3)ccnc2[nH]n1-c1ccccc1,-18,-4,-0.7%&6.1%,16%,-18,-2.2,-7
Cc1ccc(S(=O)(=O)Nc2ccccc2F)cc1C(=O)NNC(=O)c1ccccc1O,2,-11,-2.2%,·,-8,1.7,3
O=C(NC(c1ccc2c(c1)OCO2)c1ccccn1)C1CCN(CCOc2ccc(Cl)cc2Cl)CC1 (stereo not given),·,-22,-0.3%,·,-20,-2.1,-8
O=c1[nH]c(=S)[nH]c2sccc12,1,-4,-1.0%,22µM*,14,-8.6,-9
Cc1cccc(N2N=C(C(=O)Nc3ccc(Cl)c(S(=O)(=O)N4CCOCC4)c3)CCC2=O)c1,2,?,0.0%,·,?,1.5,4

# Quoted at random: 5 compounds from above, in no set order.
SMILES,TRPV1 PAM,CtBP-E1A blk,PINK1 expr mod,Sfp inh,Six1-Eya2 blk,D2 agonist,D2 PAM
O=c1[nH]c(=S)[nH]c2sccc12,1,-4,-1.0%,22µM*,14,-8.6,-9
Cc1ccc(S(=O)(=O)Nc2ccccc2F)cc1C(=O)NNC(=O)c1ccccc1O,2,-11,-2.2%,·,-8,1.7,3
CCOc1ccc(S(=O)(=O)NCCC(=O)N2CCN(c3ccc(OC)cc3)CC2)cc1,0,-21,-0.6%,10%,-15,-3.5,-4
C1=Cc2ccccc2Nc2ccccc21,-3,·,0.8%,8%,-20,-0.1,-6
Cc1cccc(N2N=C(C(=O)Nc3ccc(Cl)c(S(=O)(=O)N4CCOCC4)c3)CCC2=O)c1,2,?,0.0%,·,?,1.5,4
